# Bioassay records from PubChem BioAssay.
# GIV Gai3 FP = inhibitors of GIV GBA-motif binding to rat Galpha-i3. Galpha-i3/FITC-GIV peptide fluorescence polarization, 90 min; active compounds read low; scaled: aluminum fluoride 0%, vehicle 100%. hit rate 0.42% among 210,000. percent of control (FP), % (test concentration not listed);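 active = replicate mean at 85% of control or lower, very high polarization wells dropped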;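 also: lower values mean more displacement of the GIV peptide from Galpha-i3; wells of about 15 µL received 100 nL stock; the first replicate is given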
# Target sequence (P08753 whole entry, looked up): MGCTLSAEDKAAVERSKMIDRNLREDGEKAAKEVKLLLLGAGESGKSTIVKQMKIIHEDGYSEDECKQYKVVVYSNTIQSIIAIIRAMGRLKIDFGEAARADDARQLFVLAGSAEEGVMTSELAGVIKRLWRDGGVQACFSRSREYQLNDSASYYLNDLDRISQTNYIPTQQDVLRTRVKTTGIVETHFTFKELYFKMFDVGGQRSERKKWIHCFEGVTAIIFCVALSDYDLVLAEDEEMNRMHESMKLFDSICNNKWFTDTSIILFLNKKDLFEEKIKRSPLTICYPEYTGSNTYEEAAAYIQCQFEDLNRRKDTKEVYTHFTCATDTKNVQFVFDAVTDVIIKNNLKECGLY
# Sa growth inh = S. aureus growth inhibition | S. aureus RN4220 growth, OD600, 20 h, 42 °C; active compounds read low | relative growth, % (test concentration not listed) | hit rate 0.53% among 170,000 | AID 720641;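 active = growth at 42 °C up to 50% and 20 or more points under that at 30 °C, or under 10% at both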;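 also: 300 nL library stock went into each well; scaled to the means of positive and negative controls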
# HCMV NEC inh = cytomegalovirus nuclear egress complex inhibition. HTRF UL50-UL53 interaction, normalized percent inhibition. inhibition, % (concentration not given with the values). hit rate 0.15% among 190,000;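 active = both replicates at 50% or more, plus weaker picks with an unusually low signal ratio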;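 also: stock transfer was 100 nL into about 20 µL; 0% = negative control wells and 100% = wells with untagged competitor protein; inactives centre near -12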
# Sa growth inh second temp = recorded beside Sa growth inh, whose call it bears; relative growth, %; measured here: growth at 30 °C;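 optical density after 20 h as mean of two plates; 100% = untreated growth and lower means inhibition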
# Numbers without * were called inactive; · = no result given; & = joins results of further samples. An unsorted share of the library; 0.83% or so of the library scored in one or more.
No.	structure	Sa growth inh second temp	HCMV NEC inh	GIV Gai3 FP	Sa growth inh
1	CC(C)C(NS(=O)(=O)c1ccc2c3c(cccc13)C(=O)N2C)C(=O)O (stereo unspecified)	84	-101	101	88
2	CN(C(=O)Cn1cc(S(=O)(=O)N2CCN(c3ccccc3F)CC2)c2ccccc2c1=O)c1ccc(Cl)cc1	87	2	103	101
3	CN(C)C(=O)c1ccc(COc2ccccc2Br)o1	88	-5	103	92
4	CCCCOc1ccccc1C(=O)Nc1onc2c1CCCC2	64	-4	100	91
5	O=C(c1ccccc1)N1CCCCC(Sc2nnnn2-c2ccccc2)C1=O (stereo unspecified)	95	-5	·	105
6	Cc1ccc2c(c1)c1c(n2CC(O)CNCc2ccccc2)CCCC1 (stereo unspecified)	-1	-11	100&98	23
7	COC(=O)c1ccccc1NC(=O)COCc1cc(-c2cccs2)on1	94	·	101	118
8	CCOc1ccccc1NC(=O)Nc1cc(C(=O)NCc2ccc(C)cc2)ccc1N1CCCC1	75	·	102	104
9	COc1ccc(NC(=O)Cn2c(=O)c3c(OC)ccnc3n(C)c2=O)c(OC)c1	·	-3	102	·
10	CC(C)S(=O)(=O)c1cscc1NS(=O)(=O)c1ccc(Cl)cc1	93	0	100	95
11	O=C1c2ccccc2C(=O)N1/N=C/c1ccc(OC(F)F)cc1	86	-24	·	87
12	Cc1cc(C)cc(-n2ccnc2SCC(=O)Nc2cccc3ccccc23)c1	90	·	100	84
13	CCN1CCCC1CNC(=O)C1CCN(c2nnc(C)c3c(C)n(-c4ccc(C)cc4)nc23)CC1 (stereo unspecified)	·	2	131	·
14	N#CCC(=O)N/N=C/c1ccccc1	95	-40	·	87
15	Cc1ccc(NC(=O)N2CCCN(c3ccc(=O)n(-c4ccc(F)cc4)n3)CC2)cc1C	·	-49	106	·
16	CC(C)N(C(=O)CSc1nc2c([nH]1)c(=O)n(C)c(=O)n2C)c1ccccc1	·	-10	105	·
17	O=C(Nc1ccccc1)Nc1ccc(I)cn1	78	-13	99	108
18	CCOC(=O)c1c(-c2ccc(OC)cc2)csc1NC(=O)CSc1nnc2ccccn12	63	·	99	113
19	CC12C(=O)N(c3ccc(Br)cc3)C(=O)C1ON(c1ccccc1)C2c1ccccc1O (stereo unspecified)	95	-12	101	97
20	CCCN(CC(=O)c1cc(C)n(C)c1C)S(=O)(=O)c1cccc(C(F)(F)F)c1	94	-27	·	99
21	O=C(NCCc1ccccc1)c1ccc2c(c1)N(Cc1ccccc1)C(=O)c1ccccc1S2=O (stereo unspecified)	94	-8	100	100
22	COc1ccc(OCC(O)CNC(=O)c2cccs2)cc1 (stereo unspecified)	87	0	111	124
23	CN1CCN(C(=O)CCCn2c(=O)c3cccn3c3ccc(Br)cc32)CC1	·	-4	103	·
24	Nc1ccccc1-c1nc(-c2ccc(Cl)cc2)no1	76	·	102	111
25	CN(CCC#N)S(=O)(=O)c1ccc2[nH]cc(C(=O)N(Cc3ccco3)CC3CCCO3)c(=O)c2c1 (stereo unspecified)	91	6	97	90

# The list goes on:
No.	structure	Sa growth inh second temp	HCMV NEC inh	GIV Gai3 FP	Sa growth inh
26	CC(C)CCNC(=O)C1(C)Cn2nc(C(C)(C)C)cc2C(=O)N1c1ccc(F)cc1 (stereo unspecified)	·	-55	98	·
27	COc1cccc(CNC(=O)CSc2nc(=O)[nH]c3c2CCC3)c1	87	·	98	97
28	Cc1ccc(-c2[nH]ncc2Sc2ccc(C(F)(F)F)cn2)cc1	79	5	99	73
29	Cc1cccc(NC(=O)Cn2nc(N3CCN(c4ccccc4)CC3)ccc2=O)c1C	72	·	103	91
30	CSc1ncc(C(=O)N2CCN(c3ccc(Cl)cc3)CC2)c(C)n1	96	·	108	114
31	CS(=O)(=O)N1CCC(C(=O)NCCN2CCN(Cc3ccccc3)CC2)CC1	100	4	111	94
32	CCN(CC(=O)Nc1ccccc1C(=O)c1ccccc1)CC(=O)NC1CCS(=O)(=O)C1 (stereo unspecified)	97	-29	·	98
33	CC(C)(C)CC(C)(C)NC(=O)c1c(F)cccc1F	85	-12	101	87
34	O=C(Nc1ccc(Cl)cc1F)C1CCCN(C(=O)c2cc(-c3ccccn3)n[nH]2)C1 (stereo unspecified)	·	-7	99	·
35	CCn1c(N)c(-c2csc(Nc3ccc(F)c(Cl)c3)n2)c(=O)[nH]c1=O	90	-23	·	76
36	COc1ccc(-c2nc(CN3CCC(C(=O)NCCCN4CCN(c5ccccc5F)CC4)CC3)c(C)o2)cc1OC	87	-6	111	91
37	CN(CC(=O)Nc1nc2ccc(Cl)cc2s1)S(=O)(=O)c1ccc2[nH]c(=O)ccc2c1	97	·	105	124
38	COC(=O)c1cnc(SCc2c(Cl)cccc2Cl)n1C	72	-17	101	87
39	CC1CC(C)CN(S(=O)(=O)c2ccc(C(=O)NC(C)(C)C)cc2)C1 (stereo unspecified)	94	-25	·	76
40	Cc1[nH]c2ccccc2c1C1=CCN(S(=O)(=O)Cc2ccccc2)CC1	91	·	108	98
41	COc1cccc(C2CC(c3cccs3)=NN2C(=O)CSC2=NN3CCCC(=O)N=C3S2)c1OC (stereo unspecified)	78	-25	102	91
42	O=C(NCCN1CCOCC1)c1cc(-c2ccncc2)nc2ccccc12	85	-26	104	91
43	Fc1ccc(SCSc2ccccc2)cc1	98	19	·	70
44	CCn1ccc2cc(S(=O)(=O)N3CCC(C(=O)NCCc4ccc(C)cc4)CC3)ccc21	88	·	103	74
45	CC(C)(C)C(N)Cn1ccnc1 (stereo unspecified)	88	-6	·	102
46	Cc1ccc(CN2CCSc3ccc(C(=O)NCCc4ccccc4)cc32)cc1	86	-34	105	102
47	CCOc1ccc(CCNC(=O)c2cn(C)c3ccc(S(=O)(=O)N4CCCCCC4)cc3c2=O)cc1OCC	92	-24	101	90
48	Cc1ccc(CNC(=O)C(C)n2nc(C)c3ccccc32)cc1 (stereo unspecified)	95	4	103	109
49	CC1(C(=O)NC2CCCC2)Cn2c(cc3ccccc32)C(=O)N1C1CC1 (stereo unspecified)	·	0	103	·
50	CCC1(C)Cc2ccccc2/C(=C/C(=O)N2CCCCC2)N1 (stereo unspecified)	86	-1	103	131

# Reprinted from the part before: 4 entries; new compounds follow.
No.	structure	Sa growth inh second temp	HCMV NEC inh	GIV Gai3 FP	Sa growth inh
47	CCOc1ccc(CCNC(=O)c2cn(C)c3ccc(S(=O)(=O)N4CCCCCC4)cc3c2=O)cc1OCC	92	-24	101	90
48	Cc1ccc(CNC(=O)C(C)n2nc(C)c3ccccc32)cc1 (stereo unspecified)	95	4	103	109
49	CC1(C(=O)NC2CCCC2)Cn2c(cc3ccccc32)C(=O)N1C1CC1 (stereo unspecified)	·	0	103	·
50	CCC1(C)Cc2ccccc2/C(=C/C(=O)N2CCCCC2)N1 (stereo unspecified)	86	-1	103	131
51	CCc1ccc(NC(=O)CSc2ncc(S(=O)(=O)c3ccc(C(C)C)cc3)c(N)n2)cc1	90	·	100	89
52	Cc1cccc(NC(=O)N2CCC(CN3CCc4ccccc4C3)CC2)c1C	102	·	106	110
53	CC(C)CCNC(=O)c1ccc2c(c1)NC(=O)C(CS(=O)(=O)Cc1cccc(Br)c1)N2 (stereo unspecified)	93	·	193	101
54	O=S(=O)(c1ccccc1)c1nc(-c2ccc(F)cc2)oc1NCc1ccccc1	91	-8	108	121
55	O=C(NCc1ccccc1)C(=O)NCC(c1cccs1)S(=O)(=O)c1cccs1 (stereo unspecified)	88	·	98	107
56	O=C(NCCc1ccccc1)c1ccc(Cl)cc1	79	·	103	96
57	COc1ccc(C)cc1NC(=O)C1CC(=O)Nc2ncnn21 (stereo unspecified)	·	-8	93	·
58	COc1ccc(C2NC(=O)NC(C)=C2C(=O)OCc2ccccc2)cc1Br (stereo unspecified)	·	-10	104	·
59	CCN(CC)C(=O)COc1ccc(-c2nnc(Nc3ccc(OC)c(C(=O)NC)c3)c3ccccc23)cc1	81	-61	107	111
60	CC1CCCC(C)N1C(=O)COC(=O)c1cc(C(F)(F)F)cc(C(F)(F)F)c1 (stereo unspecified)	97	-37	·	108
61	COc1cc2nc(C3CCC3)n(NC(=O)C(OC(C)=O)c3ccccc3)c(=O)c2cc1OC (stereo unspecified)	66	-6	99	95
62	CCN1C(=O)S/C(=C/c2ccc(N3CCCC3)c(F)c2)C1=O	88	1	134	116
63	Cc1nc(-c2cc(S(=O)(=O)N3CCC(C(=O)Nc4ccc5c(c4)OCCO5)CC3)c(C)s2)no1	·	-3	106	·
64	CCOc1ccc(CCNC(=O)CN2C(=O)COc3ccc(S(=O)(=O)N4CCC(C)CC4)cc32)cc1	90	-10	100	100
65	CC(C)c1ccc(C#N)cc1	91	-8	·	92
66	O=C(OCC1CCCO1)c1ccccc1Br (stereo unspecified)	100	13	·	99
67	Cc1nc(-c2cc3cccc(C)c3nc2N2CCN(C)CC2)no1	·	4	107	·
68	CCn1cc2nc(SCc3ccccc3Cl)n(Cc3ccc(OC)cc3)c(=O)c2n1	67	·	99	82
69	CCOC(=O)c1c(NC(=O)CC2NCCNC2=O)sc2c1CCCC2 (stereo unspecified)	91	-43	107	95
70	CN(C)c1ncn(Cc2c(Cl)cccc2Cl)c2ncnc1-2	88	1	104	111
71	Brc1ccccc1OCC1CCCN2CCCCC12 (stereo unspecified)	76	0	·	94
72	CCc1nnsc1C(=O)Nc1sc2c(c1C(=O)NCC1CCCO1)CCCC2 (stereo unspecified)	70	-9	106	92
73	CCOC(=O)C1CCCN(C(=O)c2nn(-c3ccc(OC)cc3)c(=O)c3c2c2ccccc2n3C)C1 (stereo unspecified)	100	-8	109	91
74	CC(C)(C)NC(=O)CSc1ncn[nH]1	·	10	104	·
75	CC1CCN(c2nnc(NC(=O)c3cc(-c4ccc(Br)cc4)on3)s2)CC1	73	·	107	127

# Additional results
No.	structure	Sa growth inh second temp	HCMV NEC inh	GIV Gai3 FP	Sa growth inh
76	CCN(C(=O)c1cn(-c2cccc(OC)c2)c(=O)c2ccccc12)c1ccccc1C	88	·	101	102
77	Cc1[nH]c(=S)sc1CC(=O)NC1CCCCC1C (stereo unspecified)	95	9	·	66
78	O=C(CSc1ncccn1)N1CCN(c2ccccc2)CC1	101	8	112	108
79	CS(=O)(=O)C1(S(C)(=O)=O)CCCCC1	89	-5	·	75
80	Cc1ccc(-c2nc(CS(=O)(=O)CC(=O)NCc3ccc(Cl)cc3)c(C)o2)cc1	87	-24	103	100
81	N#CCn1c(CSc2nnc(COc3ccccc3Cl)n2C2CC2)nc2ccccc2c1=O	104	-9	·	84
82	O=C(CSc1nnc(-c2ccco2)o1)N1CCCc2ccccc21	96	·	94	100
83	O=S(=O)(c1ccc(F)c(Cl)c1)N1CCN(c2nc3cccnc3s2)CC1	·	-12	104	·
84	O=C(CN1C(=O)C2CCCCN2c2ccc(C(=O)N3CCCCC3)cc21)N1CCc2ccccc2C1 (stereo unspecified)	·	-26	100	·
85	C=C(C)Cn1c(=S)[nH]c2ccccc2c1=O	78	-8	·	92
86	COc1ccc(Cl)cc1N/C=C(/C#N)c1nc2ccccc2n1C	72	6	99	106
87	CCOc1ccc(NC(=O)CC2C(=O)N(c3ccc(Cl)cc3)C(=O)N2Cc2cccs2)cc1 (stereo unspecified)	87	·	103	98
88	NC(=O)Cn1c(=O)n(Cc2ccc3c(c2)OCO3)c(=O)c2oc3ccccc3c21	·	-17	104	·
89	CCC(=O)N1CCc2cc(S(=O)(=O)NCC(OC)OC)ccc21	85	-29	99	87
90	CC(O)CNc1cc(=O)oc2ccccc12 (stereo unspecified)	89	-2	110	112
91	CCOc1ccccc1C(=O)NC1CCNCC1	93	-1	97	103

# Molecules from the list above that contain a Cl atom:
No.	structure	Sa growth inh second temp	HCMV NEC inh	GIV Gai3 FP	Sa growth inh
2	CN(C(=O)Cn1cc(S(=O)(=O)N2CCN(c3ccccc3F)CC2)c2ccccc2c1=O)c1ccc(Cl)cc1	87	2	103	101
10	CC(C)S(=O)(=O)c1cscc1NS(=O)(=O)c1ccc(Cl)cc1	93	0	100	95
24	Nc1ccccc1-c1nc(-c2ccc(Cl)cc2)no1	76	·	102	111
30	CSc1ncc(C(=O)N2CCN(c3ccc(Cl)cc3)CC2)c(C)n1	96	·	108	114
34	O=C(Nc1ccc(Cl)cc1F)C1CCCN(C(=O)c2cc(-c3ccccn3)n[nH]2)C1 (stereo unspecified)	·	-7	99	·
35	CCn1c(N)c(-c2csc(Nc3ccc(F)c(Cl)c3)n2)c(=O)[nH]c1=O	90	-23	·	76
37	CN(CC(=O)Nc1nc2ccc(Cl)cc2s1)S(=O)(=O)c1ccc2[nH]c(=O)ccc2c1	97	·	105	124
38	COC(=O)c1cnc(SCc2c(Cl)cccc2Cl)n1C	72	-17	101	87
56	O=C(NCCc1ccccc1)c1ccc(Cl)cc1	79	·	103	96
68	CCn1cc2nc(SCc3ccccc3Cl)n(Cc3ccc(OC)cc3)c(=O)c2n1	67	·	99	82
70	CN(C)c1ncn(Cc2c(Cl)cccc2Cl)c2ncnc1-2	88	1	104	111
80	Cc1ccc(-c2nc(CS(=O)(=O)CC(=O)NCc3ccc(Cl)cc3)c(C)o2)cc1	87	-24	103	100
81	N#CCn1c(CSc2nnc(COc3ccccc3Cl)n2C2CC2)nc2ccccc2c1=O	104	-9	·	84
83	O=S(=O)(c1ccc(F)c(Cl)c1)N1CCN(c2nc3cccnc3s2)CC1	·	-12	104	·
86	COc1ccc(Cl)cc1N/C=C(/C#N)c1nc2ccccc2n1C	72	6	99	106
87	CCOc1ccc(NC(=O)CC2C(=O)N(c3ccc(Cl)cc3)C(=O)N2Cc2cccs2)cc1 (stereo unspecified)	87	·	103	98
